# Compound activity (PubChem BioAssay)
# Vaccinia stage: blocks a specific stage of Vaccinia orthopoxvirus infection, primary screen, cell-based, single point; Vaccinia-infected cells, mCherry/Venus stage reporter fluorescence; hits give low values; some inactives read as strong as hits; activity change (mCherry), % (no concentration beside the values); 89,000 compounds, 0.01% hits;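 active = mCherry past -33% and 40 or more points under the early reporter, replicates agreeing; inconclusive = past -33% without that gap or agreement; tested in A549 cells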;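 note: scaled between vehicle wells and reference inhibitor wells; 23 nL library stock went into each well; one replicate is shown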
# Vaccinia stage Venus: also measured in Vaccinia stage; calls as there; activity change (Venus), %; measured here: Venus reporter, other viral stage;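 negative = less Venus signal; first of two replicates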
# * hit, by the source's call; ? = inconclusive; nt = no result given; & = joins results of further samples. Only part of the results is shown; the hit share may differ from the screen's.
canonical_smiles	Vaccinia stage	Vaccinia stage Venus
CCCC#Cc1ccc([C@@H]2[C@H]3CN(S(=O)(=O)Cc4ccccc4)CC(=O)N3[C@H]2CO)cc1	1	-10
O=C(c1ccc(F)cc1)N1CCCCN2[C@H](C1)[C@@H](c1ccc(/C=C/c3ccccc3)cc1)[C@@H]2CO	-4	-20
O=S(=O)(c1ccc(F)cc1)N1CCCCN2[C@H](CO)[C@@H](c3ccc(-c4ccccc4F)cc3)[C@@H]2C1	7	-8
CC(C)NC(=O)N[C@@H]1C=C[C@H](CC(=O)NCCN2CCCC2)O[C@@H]1CO	2	7
O=C(NCC(F)(F)F)[C@@H]1[C@@H](CO)[C@@H]2Cn3c(cccc3=O)[C@H]1N2CC1CC1	15	7
COc1ccc(S(=O)(=O)N(C)C[C@H]2OCCCC[C@@H](C)Oc3ccc(NC(=O)Nc4cccc5ccccc45)cc3C(=O)N([C@H](C)CO)C[C@@H]2C)cc1	16	6
C[C@@H]1CCCCO[C@H](CN(C)C(=O)Nc2ccccc2)[C@H](C)CN([C@@H](C)CO)C(=O)c2cc(NS(=O)(=O)c3cccs3)ccc2O1	-9	-8
CCCN(C)C[C@H]1OCCCC[C@H](C)Oc2ccc(NC(=O)c3ccccc3)cc2C(=O)N([C@@H](C)CO)C[C@H]1C	-13	-12
CC(C)NC(=O)Nc1cccc2c1O[C@@H](CN(C)S(=O)(=O)c1ccc(F)cc1)[C@H](C)CN([C@@H](C)CO)C2=O	-9	-10
COc1ccc(-c2ccc([C@H]3[C@@H](C#N)N(C(=O)NC(C)C)[C@@H]3CO)cc2)cc1	-15	-6
CC(C)NC(=O)N(C)C[C@H]1Oc2ccc(NS(=O)(=O)c3cn(C)cn3)cc2CC(=O)N([C@H](C)CO)C[C@H]1C	18	13
O=C(NC[C@H]1N[C@H](CO)[C@@H]1c1ccc(C2=CCCC2)cc1)c1ccccc1	-17	2
C[C@@H]1CN([C@H](C)CO)C(=O)c2cc(C#Cc3cccc(F)c3)cnc2O[C@@H]1CN(C)C(=O)C1CC1	6	3
CO[C@@H]1CN(C)C(=O)c2cc(NC(=O)C3CCC3)ccc2OC[C@@H](C)N(Cc2ccccn2)C[C@@H]1C	-7	-11
COc1ccc(-c2ccc([C@@H]3[C@@H](CO)N(C(=O)NC4CCCC4)[C@H]3C#N)cc2)cc1	-3	-1
C[C@@H]1CN([C@H](C)CO)C(=O)c2cc(Br)cnc2O[C@H]1CN(C)C(=O)Nc1ccccc1F	12	16
C[C@H](CO)N1C[C@H](C)[C@H](CN(C)C(=O)Nc2ccccc2)OCCCC[C@H](C)Oc2ccc(NS(=O)(=O)c3ccc(Cl)cc3)cc2C1=O	?	nt
C[C@H]1CN([C@@H](C)CO)C(=O)c2cccc(NC(=O)Nc3ccc(F)cc3)c2O[C@H]1CN(C)CC1CC1	-4	-4
CCCN(C[C@@H]1N[C@@H](CO)[C@H]1c1ccc(-c2cccnc2)cc1)C(C)=O	5&7	12&2
CCN1[C@H](C(=O)Nc2ccccc2)[C@@H](CO)[C@@H]2Cn3c(ccc(-c4ccccc4)c3=O)[C@@H]21	12	4
C[C@@H]1CN([C@H](C)CO)C(=O)c2cc(NC(=O)C3CCCCC3)ccc2O[C@H]1CN(C)Cc1ccc(C(F)(F)F)cc1	-29	-22
COc1ccc(S(=O)(=O)N(C)C[C@H]2OCCCC[C@H](C)Oc3ccc(NS(=O)(=O)c4c(C)noc4C)cc3C(=O)N([C@@H](C)CO)C[C@H]2C)cc1	?	nt
O=C(C[C@@H]1CC[C@@H]2[C@H](COC[C@H](O)CN2C(=O)Nc2ccc(F)cc2)O1)NC1Cc2ccccc2C1	9	12
CNC[C@@H]1Oc2ccc(NC(=O)C3CC3)cc2CC(=O)N([C@@H](C)CO)C[C@H]1C	32	4
C[C@@H]1CCCCO[C@@H](CN(C)S(=O)(=O)c2cn(C)cn2)[C@H](C)CN([C@@H](C)CO)C(=O)c2cc(NS(C)(=O)=O)ccc2O1	10	8
Cc1noc(C)c1NC(=O)N(C)C[C@H]1Oc2ccc(NC(=O)c3ccncc3)cc2C(=O)N([C@@H](C)CO)C[C@@H]1C	3	5
COc1ccc(NC(=O)N(C)C[C@H]2Oc3ccc(NS(=O)(=O)c4ccc(OC)cc4)cc3C(=O)N([C@@H](C)CO)C[C@H]2C)cc1	5	2
O=C(c1cccnc1)N1CC(=O)N2[C@H](C1)[C@H](c1ccc(-c3ccccc3F)cc1)[C@@H]2CO	-4	-3
COCC#Cc1cnc2c(c1)C(=O)N([C@H](C)CO)C[C@H](C)[C@H](CN(C)C(=O)Nc1c(C)noc1C)O2	6	11
Cc1noc(C)c1S(=O)(=O)Nc1ccc2c(c1)C(=O)N([C@H](C)CO)C[C@@H](C)[C@@H](CN(C)C(=O)c1ccccc1)OCCCC[C@H](C)O2	33	16
COCC#Cc1ccc2c(c1)O[C@@H](CN(C)C(=O)COC)[C@@H](C)CN([C@H](C)CO)S2(=O)=O	13	10
Cc1noc(C)c1NC(=O)N(C)C[C@H]1OCCCC[C@@H](C)Oc2ccc(NC(=O)c3ccccc3)cc2C(=O)N([C@H](C)CO)C[C@@H]1C	38	7
C/C=C/c1ccccc1[C@H]1[C@@H](C#N)N(c2ncc(CC)s2)[C@@H]1CO	-15	-13
NC(=O)[C@H]1[C@@H]2C(=O)O[C@@H](c3ccccc3)[C@@H](c3ccccc3)N2[C@@H](c2ccc(OCCO)cc2)[C@]12C(=O)Nc1ccc(C#CC3(O)CCCCCC3)cc12	-6	2
C[C@H](CO)N1C[C@H](C)[C@H](CN(C)C(=O)c2ccc3ccn(C)c3c2)OCc2cnnn2CCCC1=O	9	7
Cc1noc(C)c1S(=O)(=O)Nc1ccc2c(c1)C(=O)N([C@H](C)CO)C[C@H](C)[C@@H](CN(C)Cc1ccccc1)OCCCC[C@@H](C)O2	4	-4
CO[C@@H]1CN(C)C(=O)c2cc(NC(=O)Nc3ccccc3)ccc2OC[C@H](C)N(CC2CC2)C[C@H]1C	-19	-21
COc1ccccc1NC(=O)N1C[C@H](O)COC[C@@H]2O[C@H](CC(=O)NCCc3ccccc3)CC[C@H]21	-10	-11
C[C@H]1CN([C@@H](C)CO)C(=O)c2cccc(NC(=O)c3ccc(-c4nccs4)cc3)c2O[C@@H]1CN(C)S(=O)(=O)c1cccs1	10	1
C[C@@H]1CN([C@H](C)CO)C(=O)c2cc(NC(=O)Cc3cn(C)c4ccccc34)ccc2O[C@@H]1CN(C)C(=O)Nc1ccccc1	-1	-4

# Compound profiles, as listed above. Values in the order: Vaccinia stage	Vaccinia stage Venus
# NC(=O)[C@H]1[C@@H]2C(=O)O[C@@H](c3ccccc3)[C@@H](c3ccccc3)N2[C@@H](c2ccc(OCCO)cc2)[C@]12C(=O)Nc1ccc(C#CC3(O)CCCCCC3)cc12 as listed: -6	2
# Cc1noc(C)c1S(=O)(=O)Nc1ccc2c(c1)C(=O)N([C@H](C)CO)C[C@H](C)[C@@H](CN(C)Cc1ccccc1)OCCCC[C@@H](C)O2 as listed: 4	-4

# Other results
canonical_smiles	Vaccinia stage	Vaccinia stage Venus
CO[C@H]1CN(C)C(=O)c2ccc(NC(=O)c3ccccc3)cc2OC[C@H](C)NC[C@H]1C	9	10
COc1ccc(S(=O)(=O)N(C)C[C@H]2OCCCC[C@H](C)Oc3ccc(NC(=O)NC(C)C)cc3C(=O)N([C@@H](C)CO)C[C@H]2C)cc1	24	17
CO[C@@H]1CN(C)C(=O)c2cc(NS(=O)(=O)c3ccc(Oc4ccccc4)cc3)ccc2OC[C@H](C)NC[C@H]1C	-22	-20
CNC[C@H]1Oc2c(NC(=O)C3CCCCC3)cccc2C(=O)N([C@@H](C)CO)C[C@@H]1C	7	4
O=C(C[C@H]1CC[C@H](NC(=O)CCN2CCCCC2)[C@@H](CO)O1)NCc1ccc(Cl)c(Cl)c1	-9	4
C[C@H](CO)N1C[C@H](C)[C@@H](CN(C)C(=O)Nc2ccc3c(c2)OCO3)Oc2ccc(NC(=O)C3CC3)cc2CC1=O	0	-1
CC(=O)N[C@@H]1C[C@@H]2O[C@@H](CO)CC[C@@H]2O[C@@H]1CCc1ccc(C#CC2(O)CCCC2)cc1	4	7
CCOC(=O)N(C)C[C@H]1OCc2ccccc2-c2c(n(C)c3ccccc23)C(=O)N([C@H](C)CO)C[C@H]1C	-16	-14
C[C@H](CO)N1C[C@H](C)[C@H](CN(C)C(=O)Nc2cccc3ccccc23)OCCCC[C@H](C)Oc2ccc(NC(=O)Nc3ccc(C(F)(F)F)cc3)cc2C1=O	17	7
COc1ccc(S(=O)(=O)N(C)C[C@@H]2Oc3ccc(NC(=O)Nc4c(C)noc4C)cc3CC(=O)N([C@H](C)CO)C[C@@H]2C)cc1	-5	4
Cc1noc(C)c1NC(=O)N(C)C[C@H]1Oc2ccc(NC(=O)NC3CCCCC3)cc2CC(=O)N([C@H](C)CO)C[C@@H]1C	22	8
CN(C)c1ccc2c(c1)[C@H]1C[C@H](CC(=O)N3CCCCC3)O[C@H](CO)[C@H]1O2	7	17
CCNC(=O)C[C@@H]1CC[C@@H]2[C@H](COc3ccc(NS(=O)(=O)c4ccccc4C)cc3C(=O)N2C)O1	4	1
Cc1noc(C)c1NC(=O)Nc1ccc2c(c1)CC(=O)N([C@H](C)CO)C[C@H](C)[C@H](CN(C)C(=O)Nc1ccc(C(F)(F)F)cc1)O2	6	5
O=C(C[C@H]1C[C@H]2c3cc(NC(=O)Nc4ccc(F)cc4)ccc3O[C@H]2[C@@H](CO)O1)NCC(F)(F)F	1	0
O=C(N[C@@H]1CC[C@H](CCn2cc(C3(O)CCCC3)nn2)O[C@H]1CO)C1CCCCC1	2	-1
C[C@@H]1CN([C@H](C)CO)C(=O)c2cc(C#Cc3cccc(F)c3)cnc2O[C@@H]1CN(C)CC1CCCC1	?	nt
C[C@H]1CN([C@@H](C)CO)C(=O)c2ccccc2-c2ccccc2CO[C@H]1CN(C)Cc1cccc(C(=O)O)c1	14	12
CCC(=O)N1CC2(C1)[C@@H](c1ccc(-c3ccccc3)cc1)[C@@H](CO)N2S(C)(=O)=O	2	4
O=C(C[C@@H]1C=C[C@H](NS(=O)(=O)c2ccccc2)[C@@H](CO)O1)NCc1ccncn1	13	4

# Four records drawn at random from those above, as already listed:
canonical_smiles	Vaccinia stage	Vaccinia stage Venus
O=C(C[C@H]1C[C@H]2c3cc(NC(=O)Nc4ccc(F)cc4)ccc3O[C@H]2[C@@H](CO)O1)NCC(F)(F)F	1	0
CCNC(=O)C[C@@H]1CC[C@@H]2[C@H](COc3ccc(NS(=O)(=O)c4ccccc4C)cc3C(=O)N2C)O1	4	1
Cc1noc(C)c1NC(=O)N(C)C[C@H]1Oc2ccc(NC(=O)NC3CCCCC3)cc2CC(=O)N([C@H](C)CO)C[C@@H]1C	22	8
Cc1noc(C)c1NC(=O)Nc1ccc2c(c1)CC(=O)N([C@H](C)CO)C[C@H](C)[C@H](CN(C)C(=O)Nc1ccc(C(F)(F)F)cc1)O2	6	5

# Other compounds.
canonical_smiles	Vaccinia stage	Vaccinia stage Venus
COC(=O)C[C@H]1C[C@H]2c3cc(N(C)C)ccc3O[C@H]2[C@@H](CO)O1	25	28
COc1ccc(NC(=O)Nc2ccc3c(c2)CC(=O)N([C@H](C)CO)C[C@@H](C)[C@@H](CN(C)S(=O)(=O)c2ccccc2)O3)cc1	-5	-3
CO[C@H]1CN(C)C(=O)c2ccc(NS(C)(=O)=O)cc2OC[C@H](C)N(Cc2ccccc2)C[C@@H]1C	-4	-2
Cc1noc(C)c1S(=O)(=O)N(C)C[C@@H]1Oc2ccc(NS(C)(=O)=O)cc2CC(=O)N([C@H](C)CO)C[C@@H]1C	9	4
N#C[C@@H]1[C@H](c2ccccc2C2=CCCCC2)[C@@H](CO)N1S(=O)(=O)c1cccc(F)c1	?	nt
Cc1ccc(S(=O)(=O)N(C)C[C@@H]2OCCCC[C@@H](C)Oc3ccc(NS(=O)(=O)c4c(C)noc4C)cc3C(=O)N([C@H](C)CO)C[C@H]2C)cc1	?	nt
COc1cccc(-c2cnc3c(c2)C(=O)N([C@H](C)CO)C[C@H](C)[C@H](CN(C)C(=O)Nc2ccccc2)O3)c1	-13	-14
CC=Cc1ccc2n(c1=O)C[C@H]1[C@H](CO)[C@@H](C(=O)NCC)N(C(=O)CC3CC3)[C@@H]21 (mixture of isomers)	13	12
C[C@@H]1CCCCO[C@@H](CN(C)S(=O)(=O)c2ccccc2)[C@H](C)CN([C@H](C)CO)C(=O)c2cc(NC(=O)Nc3ccc4c(c3)OCO4)ccc2O1	-3	2
COc1ccc(NC(=O)Nc2ccc3c(c2)[C@H]2C[C@@H](CC(=O)N(C)C)O[C@@H](CO)[C@H]2O3)cc1	2	1
CC(C)NC(=O)N(C)C[C@H]1Oc2c(NS(=O)(=O)c3cn(C)cn3)cccc2C(=O)N([C@H](C)CO)C[C@H]1C	6	0
Cc1ccc(S(=O)(=O)Nc2ccc3c(c2)C(=O)N([C@H](C)CO)C[C@H](C)[C@@H](CN(C)S(=O)(=O)c2c(C)noc2C)OCCCC[C@H](C)O3)cc1	?	nt
O=C(NCC1CC1)[C@H]1[C@H](CO)[C@H]2Cn3c(ccc(C4=CCCCC4)c3=O)[C@H]2N1Cc1ccccc1F	-1	4
CCC(=O)N1[C@H](CO)[C@H](c2ccc(C#CC(C)(C)O)cc2)[C@@H]1CN(C)C(C)=O	7	13
C[C@@H]1CN([C@H](C)CO)C(=O)c2cc(NC(=O)CCC(F)(F)F)ccc2O[C@@H](C)CCCCO[C@H]1CN(C)C(=O)c1ccccc1	12	8
C/C=C/c1ccc([C@H]2[C@@H](CO)N(c3nc(CC)cs3)[C@H]2CNC(C)C)cc1	?	nt
